miR-21 reporter = qHTS Assay for Modulators of miRNAs and/orActivators of miR-21; AID 2288, 2010; 340,000 tested, under 10 active; Potency, µM (highest dose often 38.3 µM), for inactives: top-dose reporter change, positive = more light; HeLa miR-21 FLuc reporter, luciferase, 48 h; active = well fitted rising curve with a large enough effect; inconclusive = small, poorly fitted or top-dose-only effect; inactive = no such curve, though single readings can be large or run the other way;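 also: % of control where 0% means no effect; miR-21 action dims this reporter so a rising signal means less miR-21 action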
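Luminescence from a firefly luciferase reporter carrying a miR-21 binding site downstream, stably expressed under a CMV promoter in HeLa cells that make miR-21 endogenously, reports miRNA modulation after 48 h compound exposure up to approximately 40uM final.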
Starred values were filed as active, the others as inactive; ? = inconclusive. The list is partial; count on the stated rates, not on these rows.

SMILES | miR-21 reporter
Cc1ccc(CNC(=O)Cn2ccn(-c3cccc(Cl)c3)c(=O)c2=O)cc1 | -3%
Cc1ccccc1-c1nnc(SCC(=O)N(C)C2CCCCC2)o1 | -65%
Cc1ccc(CNC(=O)c2sc3ncnc(N(C)C4CCCCC4)c3c2C)cc1 | 7%
COc1ccc(-c2noc(CSc3nnc(-c4ccncc4)n3-c3cccc(C)c3)n2)cc1OC | 0%
CN(C)c1ccc(CNC(=O)CCCN2C(=O)CCn3nc(-c4cccn4C)cc32)cc1 | -4%
CCC1CCCCN1C(=O)c1ccc2c(c1)N(Cc1cccc(Cl)c1)C(=O)c1ccccc1S2(=O)=O (stereo not drawn) | 11%
CCOC(=O)C1CCCN(S(=O)(=O)c2cc(-c3onc(C)c3C)ccc2OC)C1 (stereo not drawn) | 27%
COc1ccc(C(=O)Nc2nc(-c3ccc(Br)cc3)ns2)cc1 | -1%
Cc1cccc(NC(=O)CSc2nnc(C)c(=O)[nH]2)c1 | -2%
Cc1cccc(N2CCN(S(=O)(=O)c3ccc4[nH]c5c(c4c3)CCCCC5)CC2)c1C | ?
Cc1ccc(CCNC(=O)Cn2nc(-c3ccc(C)cc3)ccc2=O)cc1 | 7%
c1cnc(N2CCN(c3ncc4c(n3)CCNC4)CC2)nc1 | -7%
CC(=O)c1ccc(NC(=O)CCc2c(C)nc3cc(-c4ccc(Cl)cc4)nn3c2C)cc1 | 0%
CCN(CC)CCCNC(=O)CN1C(=O)COc2ccc(S(=O)(=O)N3CCC(C)CC3)cc21 | -3%
O=S(=O)(Nc1ccc(F)c(C(F)(F)F)c1)c1ccc(N2CCCCS2(=O)=O)cc1 | ?
CCOc1ccc(C2CC(=O)c3c([nH]c(C(=O)OC4CCC(C)CC4)c3C)C2)cc1 (stereo not drawn) | -4%
CCOC(=O)c1ccc(NC(=O)Cn2ncc3c(C)n(Cc4ccccc4F)c(C)c3c2=O)cc1 | -18%
Cc1ccc(OCC(=O)NCC(=O)OCc2cc(=O)n3nc(C)sc3n2)cc1 | -1%
O=C(NCCc1ccccc1)c1cnc2sc(N3CCCCC3)nn2c1=O | -13%
Cc1ccc(NC(=O)C2CCN(S(=O)(=O)c3c(C)noc3/C=C/c3cccs3)CC2)cc1F | 20%
CC(C)Oc1cccc(C(=O)Nc2ccc(-c3nc4cc(Cl)cc(Cl)c4o3)cc2)c1 | -2%
Cc1c(C(=O)N(Cc2ccc(Cl)cc2)CC2CCCO2)oc2ccc(F)cc12 (stereo not drawn) | -8%
CCCn1cc(S(=O)(=O)c2cccc(Cl)c2)c(=O)c2cc(F)c(N3CCN(CC)CC3)cc21 | 17%
OCCCc1nc2n(n1)C(c1cccc(Cl)c1)C=C(c1ccccc1)N2 (stereo not drawn) | -2%
CCN(C(=O)c1sc2nc3n(c(=O)c2c1C)CCCC3)c1ccccc1F | -8%
SMILES | miR-21 reporter
CCOC(=O)c1c(S(=O)(=O)N2CCCC(C(=O)N3CCN(c4ccc(F)cc4)CC3)C2)c(C)n(C)c1C (stereo not drawn) | 1%
COc1ccccc1NC(=O)c1cc2c(=O)n(Cc3cccs3)ccc2nc1C | 23%
CCOc1cccc(C(=O)N(Cc2ccc(N(C)C)cc2)CC2CCCO2)c1 (stereo not drawn) | 15%
Cc1cccc(CN2C(=O)c3ccccc3Sc3ccc(C(=O)NC4CCCCC4)cc32)c1 | -2%
O=C(NC1CCCCCC1)c1ccc2c(c1)sc1nc(-c3ccccc3)cn12 | -1%
CCc1nc(-c2cc(S(=O)(=O)N3CCN(c4ccccc4F)CC3)ccc2OC)no1 | -1%
COc1ccc(C(=O)NCCn2cc(SCC(=O)Nc3cccc(C)c3)c3ccccc32)cc1 | ?
Cc1ccc2c(CNCCc3ccccc3)c(C(=O)O)n(Cc3ccccc3C)c2c1 | -3%
Cc1ccccc1CSc1cn(CC(=O)N2CCCCCC2)c2ccccc12 | -3%
Cc1ccc(NC(=O)N2CCN(c3ccc(Cl)c(Cl)c3)CC2)cc1 | 13%
O=C(c1ccc(CSc2nc3ccncc3n2Cc2cccc(F)c2)cc1)N1CCCCC1 | 14%
CCOc1ccccc1NC(=O)C1CCN(S(=O)(=O)c2ccc3c(c2)CC(C)N3C(C)=O)CC1 (stereo not drawn) | -1%
CC1=C(c2ccc(C)cc2)S(=O)(=O)N(Cc2ccc(C(=O)NCc3ccccc3F)cc2)C1=O | 8%
Cc1cc(-c2nc3ncccc3o2)ccc1NC(=O)COc1ccccc1C | -5%
Cc1ccc(-c2nn(CC(=O)NC3CCCC3)c3c2cnc2ccccc23)cc1 | -7%
Cc1cc(NC(=O)CCNS(=O)(=O)c2ccc3c(c2)oc(=O)n3C)ccc1Br | -2%
CCOc1ccc(Nc2nnc(-n3nc(C)cc3C)c3ccccc23)cc1 | -19%
CCc1ccc(NC(=O)C2CCN(S(=O)(=O)c3c(C)noc3/C=C\c3ccc(OC)cc3)CC2)cc1 | 2%
Cc1cccc(NC(=O)c2ccc(CN3CC(=O)N4CCCCC4C3=O)cc2)c1C (stereo not drawn) | 6%
CCC(=O)Nc1sc2c(c1C(=O)Nc1ccc(Br)cc1)CCCCC2 | -37%
O=C(CN(CCc1ccccc1)S(=O)(=O)c1ccc(Br)cc1)NCc1ccc(Cl)cc1 | -3%
CC1=C(c2ccc(C)cc2)S(=O)(=O)N(Cc2ccc(C(=O)Nc3ccccc3C)cc2)C1=O | 28%
Cc1cccc(-c2noc(-c3cccnc3NCc3ccc(Cl)cc3)n2)c1 | 18%
Cc1ccc(C(=O)Nc2ccc(S(=O)(=O)Nc3onc(C)c3C)cc2)cc1 | -18%
Cc1ccc(/C=C/C(=O)Nc2ccccc2C(N)=O)o1 | -48%
SMILES | miR-21 reporter
O=C(Nc1ccc(F)cc1)Nc1csc2c1CCCC2 | 22%
CCOC(=O)CSc1nc(-c2ccccc2)cc(C(F)(F)F)c1C#N | -5%
Cc1cc(C)nc(-n2nc(C)c3c2N(Cc2ccccc2F)C(=O)CC3c2ccc(Cl)cc2)n1 (stereo not drawn) | 19%
COc1cc(OC)cc(-n2c(=O)c3sccc3n(Cc3ccc(F)cc3)c2=O)c1 | 2%
CCOC(=O)c1cc(-c2ccc(F)cc2)n(CCC(=O)NCc2ccccc2OC)c1C | 2%
CCc1ccc(NC(=O)c2sc3nc(C)c(Cl)c(C)c3c2NC(=O)c2ccccc2OC)cc1 | -13%
CCOc1ccccc1NC(=O)c1sc2nc3c(cc2c1N)CN(Cc1ccccc1)CC3 | 13%
CCc1cccc(NC(=O)Nc2csc3c2CCCC3)c1 | -7%
O=C(CCCCn1c(=O)c2ccccc2n(CC(=O)Nc2cccc(F)c2)c1=O)NCCc1ccccc1 | 0%
Cn1c(=O)oc2cc(S(=O)(=O)NC(Cc3ccccc3)C(=O)Nc3ccc(F)c(Cl)c3)ccc21 (stereo not drawn) | -16%
Cc1c(C(=O)OCCOc2ccccc2)[nH]c2c1C(=O)CC(c1ccc(C(C)(C)C)cc1)C2 (stereo not drawn) | -7%
Cc1cc(Nc2ccccc2C)nc(-n2nc(C)cc2C)n1 | ?
CN(C)c1ccc(CNS(=O)(=O)c2ccc3[nH]c4c(c3c2)CCCCC4)cc1 | 17%
COc1ccccc1-c1nc(SCC(=O)NCc2ccccc2)c2c(=O)n(C)c(=O)n(C)c2n1 | 2%
CCC(C)NC(=O)Cn1c(=O)n(Cc2ccc(C(=O)NCc3ccccc3OC)cc2)c(=O)c2ccccc21 (stereo not drawn) | -12%
CCc1cccc(C)c1NC(=O)c1cnn(-c2ccc(OC)cc2)c1C1CCN(C(=O)OC(C)(C)C)CC1 | 29%
Cc1ccc(-n2nc(CO)c(C(=O)NCCc3ccccc3)n2)cc1 | 6%
CN(C)c1ccc(CNC(=O)CCCN2C(=O)c3cccnc3Oc3ccc(Cl)cc32)cc1 | 0%
CN(C)C1(CNC(=O)COc2ccc(C(C)(C)C)cc2)CCCCC1 | 10%
COc1cc(-c2nc(S(=O)(=O)c3ccc(Br)cc3)c(N3CCOCC3)o2)cc(OC)c1OC | -14%
Cc1cc(C)c(S(=O)(=O)Nc2ccc(-c3ccc(N4CCCCCC4)nn3)cc2)c(C)c1 | -27%
Cc1ccccc1Cn1c(=O)n(CCC(=O)NCc2ccco2)c(=O)c2sccc21 | -8%
Cc1ccc(Cn2cccc2C2=NC(C)(C)CO2)cc1 | 1%
CCc1ccc(CN(Cc2cn[nH]c2-c2ccc(OC)cc2)C(=O)Nc2cc(Cl)ccc2OC)cc1 | 1%
O=C(Nc1cc2c(cc1C(=O)c1ccccc1Br)OCCO2)c1cccc(Cl)c1 | 0%
SMILES | miR-21 reporter
CCOc1ccccc1CNC(=O)c1cccn1-c1nnc(N2CCCCC2)s1 | 5%
COc1ccccc1CNC(=O)c1ccc(NC(=O)N2CC(C)Sc3ccccc32)cc1 (stereo not drawn) | -13%
COc1ccc(CCC(=O)NCc2nc3cccnc3n2Cc2ccc(OC)cc2)cc1 | -4%
COc1ccc(C2=C(C)C(=NCCCN3CCN(c4cc(C)ccc4C)CC3)NS2(=O)=O)cc1 | -22%
Cc1cccc(NC(=O)CSc2nnc(NC(=O)Nc3ccccc3)s2)c1C | 0%
CC1=C(C(=O)N2CCN(c3cccc(Cl)c3)CC2)C2(CCCCC2)OC1=O | -3%
CCc1ccc(OCC(=O)N(Cc2ccc(OC)cc2)C2CCS(=O)(=O)C2)cc1 (stereo not drawn) | -5%
Cc1ccc(CN2c3ccccc3-c3nc(SCC(=O)Nc4c(C)cc(C)cc4C)ncc3S2(=O)=O)cc1 | 6%
CCc1c(C)c(C#N)c2nc3ccccc3n2c1Nc1cccc(C(F)(F)F)c1 | 3%
COc1ccc(CCNC(=O)Cc2c(C)c3ccc(O)c(C)c3oc2=O)cc1OC | 18%
CCN(CC)S(=O)(=O)c1ccc2c(c1)N(CC(=O)NCCCN1CCN(c3ccccc3F)CC1)C(=O)CO2 | -6%
COc1ccc(-c2cc(C(F)(F)F)n3nc(-c4ccccc4)cc3n2)cc1OC | 3%
COC(=O)c1ccc(NC(=O)CSc2n[nH]c(CC(C)C)n2)cc1 | -9%
CCCOc1ccc(OC(=O)c2cn(-c3ccc(OC)cc3)c(=O)c3ccccc23)cc1 | 2%
COc1ccc(Cl)cc1NC(=O)C(=O)NCc1ccc(Cl)cc1 | 1%
Cc1cccc(NC(=O)CSc2nc3ccc(NC(=O)c4cccs4)cc3s2)c1 | 13%
Cc1cccc(-c2cc(-c3ccccc3)nc(SCC(=O)Nc3ccccc3)c2C#N)c1 | 2%
CCCN1CCN(CCNC(=O)Nc2cc(C)ccc2OC)CC1 | 6%
CCCNC(=O)c1c2c(nc3ccccc13)C(=O)N(C1CCCCC1)C2 | 0%
CCCCOC(=O)c1ccc(NC(=O)c2ccc3c(c2)CCCN3S(C)(=O)=O)cc1 | ?
O=C(COc1ccc([N+](=O)[O-])cc1)N1CCC(c2nc3ccccc3s2)CC1 | 27%
CC(Oc1ccccc1)C(=O)Nc1c(C(=O)Nc2cccc(F)c2)oc2ccccc12 (stereo not drawn) | -1%
CCOCCCNC(=O)C1CCC(CNS(=O)(=O)c2ccc(NC(C)=O)cc2)CC1 (stereo not drawn) | 3%
Cc1ccc(C)c(N2CCN(C(=O)c3c4c(nc5ccccc35)C(=O)N(C3CCCCC3)C4)CC2)c1 | -2%
CCN(CC)C(=O)CSc1cn(CC(=O)N2CCCCCC2)c2ccccc12 | -7%
SMILES | miR-21 reporter
COc1ccc(Cl)cc1NC(=O)CSc1cc(C)[nH]c(=O)n1 | 2%
Cc1ccc(-c2csc(-c3cc4c([nH]c3=O)CC(c3ccccc3)CC4=O)n2)cc1 (stereo not drawn) | 23%
Cc1ccccc1Cn1c2ccccc2c2cnn(CC(=O)NCC(C)c3ccccc3)c(=O)c21 (stereo not drawn) | -2%
Cc1cc2ccccc2n1CCNC(=O)c1cccc(Cl)c1 | 3%
COc1ccc(CNC(=O)c2cc(-c3cccc(Cl)c3)on2)cc1 | -11%
NCCc1nnc(SCc2ccc(Cl)cc2)o1 | -8%
CCc1ccc(OCC(=O)Nc2cc3oc4ccccc4c3cc2OC)cc1 | 3%
CCC(Cn1nnc2ccccc2c1=O)NC(=O)Nc1ccc(C)cc1C (stereo not drawn) | 3%
CCC(=O)N1c2ccc(S(=O)(=O)NCc3cccc(OC)c3)cc2CC1C (stereo not drawn) | 0%
COc1ccc(-c2nc3ccc(Cl)cn3c2Nc2ccc(C)cc2)cc1 | -12%
